# TRPML1 inh – inhibitors of human TRPML1 channel | Q9GZU1 | TRPML1-inducible cells, Ca2+ dye fluorescence, FDSS; stronger effect = lower value; inhibition of EC80 agonist-evoked calcium signal | activity change, negative = inhibition, % (no concentration beside the values) | 0.02% of 390,000 active; in the data active means activity change below about -50%; inconclusive means about -30% to -50%; inactive means above about -30%;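 also: stimulus is agonist 54-4 at its EC80 concentration; % is scaled to controls: 0 for no effect and ±100 for the full control effect; compound concentration not given in the record; the text of the record puts the active cut at -80%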
# Target sequence (Q9GZU1 whole entry, looked up): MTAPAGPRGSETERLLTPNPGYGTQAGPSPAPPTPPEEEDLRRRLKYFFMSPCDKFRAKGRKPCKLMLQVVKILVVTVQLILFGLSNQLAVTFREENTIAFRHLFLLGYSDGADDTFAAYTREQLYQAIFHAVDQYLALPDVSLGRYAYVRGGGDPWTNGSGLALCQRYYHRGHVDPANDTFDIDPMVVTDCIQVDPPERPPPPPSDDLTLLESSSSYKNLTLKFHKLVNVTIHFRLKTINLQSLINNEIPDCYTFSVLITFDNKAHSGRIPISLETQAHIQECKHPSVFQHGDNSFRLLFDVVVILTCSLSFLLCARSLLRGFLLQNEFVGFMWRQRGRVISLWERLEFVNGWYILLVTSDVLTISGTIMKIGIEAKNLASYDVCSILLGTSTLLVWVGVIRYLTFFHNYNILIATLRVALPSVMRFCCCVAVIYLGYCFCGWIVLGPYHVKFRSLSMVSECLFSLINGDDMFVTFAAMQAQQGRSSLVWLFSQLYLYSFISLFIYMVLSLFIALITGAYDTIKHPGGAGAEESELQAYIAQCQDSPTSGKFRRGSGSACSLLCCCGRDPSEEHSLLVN
#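 Tet-induced TRPML1-DL cells loaded with Ca8 no-wash calcium dye were read kinetically on FDSS. Compound addition was followed by EC80 agonist 54-4 (4 uM final); inhibition was read over 110 s.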
# TRPML1 agonist – activates the human TRPML1 channel | 0.12% of 410,000 active | TRPML1-expressing cells, Ca2+ dye fluorescence, FDSS; host cell line not named in the record; reference of the full effect not given here | Q9GZU1 | activation, % (concentration not given with the values); in the data active = activation above about 50%; inconclusive = about 30% to 50%; inactive = below about 30%; also: 0% is about no effect; the text of the record puts the active cut at 80%
#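 Calcium fluorescence on an FDSS kinetic reader gave the read-out. Tet-induced TRPML1-DL cells were plated overnight, dye-loaded (Ca8 with quencher, 45-90 min, room temperature, dark), then read 110 s after compound addition, and again 110 s after 4uM final 54-4 (EC80).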
# D2 ag – agonists of human D2 dopamine receptor (beta-arrestin); DiscoveRx PathHunter D2 beta-arrestin, luminescence, 90 min; 100% = 57 uM dopamine signal; 0.084% of 360,000 active; P14416; activation, % (test concentration not listed); in the data active = activation above about 40%; inconclusive = about 15% to 40%; inactive = below about 15%; also: compound concentration not given in the record; the text of the record calls up to 30% inactive
# Target sequence (P14416 whole entry, looked up): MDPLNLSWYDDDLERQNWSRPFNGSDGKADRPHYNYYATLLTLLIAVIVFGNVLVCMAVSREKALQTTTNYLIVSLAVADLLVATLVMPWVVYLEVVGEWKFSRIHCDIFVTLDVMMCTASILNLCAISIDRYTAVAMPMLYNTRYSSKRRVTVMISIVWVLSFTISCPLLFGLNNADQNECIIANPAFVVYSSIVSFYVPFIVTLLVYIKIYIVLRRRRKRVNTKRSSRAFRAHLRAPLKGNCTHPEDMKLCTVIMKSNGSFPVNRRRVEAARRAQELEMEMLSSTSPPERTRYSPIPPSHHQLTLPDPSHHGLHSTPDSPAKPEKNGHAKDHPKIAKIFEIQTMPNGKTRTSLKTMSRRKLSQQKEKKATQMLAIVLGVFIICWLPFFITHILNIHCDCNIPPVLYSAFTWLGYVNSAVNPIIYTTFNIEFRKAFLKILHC
#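 Agonist mode: compounds alone added to overnight-plated D2 PathHunter cells for 90 min at 37 C, with 57 uM final dopamine (EC100) defining full response. Beta-arrestin recruitment detected by chemiluminescent reagent, read after 1 h at ambient temperature.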
# CtBP-E1A inh – CtBP/E1A binding inhibition. 0.49% of 340,000 active. AlphaScreen GST-E1A/His-CtBP binding, 1536-well; stronger effect = lower value; control for the full effect not named in the record. activity change, % (concentration not given with the values). AID 651724; in the data active means activity change below about -65%; inconclusive means about -30% to -65%; inactive means above about -30%; also: % is scaled to controls: 0 for no effect and ±100 for the full control effect
#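 Protein mix (5X: 125 nM each GST-E1A, His-CtBP) was incubated with pinned compound 2 h at 37 deg C in dark, in 50 mM Tris pH 8.0 buffer with 300 mM NaCl. Glutathione donor and nickel acceptor beads followed; AlphaScreen signal read after 1 h.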
# PINK1 expr mod – modulators of PINK1 expression; PINK1 immunofluorescence, high-content cytometry, 24 h; Potency, µM (doses to about 76.6 µM), without a hit: top-dose activation (PINK1 increase), most hits filed as activators; 0.2% of 410,000 active; AID 624263; active = well fitted activation curve with a large enough effect; inconclusive = small, poorly fitted or top-dose-only effect; inactive = flat fitted curve, though single readings scatter; cell line not stated here;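 also: potency is read from the fitted curve at half-maximal effect; % of control where 0% means no effect; nearly all actives have a fitted effect of over 65% in size; a mitochondrial uncoupler was the plate control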
#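 Stable cell line treated 24 h with compounds at 5 concentrations (CCCP controls), then fixed and immunostained for PINK1 plus nuclear and cell stains; PINK1 immunofluorescence quantified by laser-scanning microplate cytometry.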
# Six1-Eya2 blk – blocks human Six1 binding to Eya2; Q15475+O00167; AlphaScreen GST-Six1/His-Eya2 binding, biochemical; stronger effect = lower value; control for the full effect not named in the record; activity change, % (concentration not given with the values); 0.56% of 360,000 active; in the data active = activity change below about -65%; inconclusive = about -30% to -65%; inactive = above about -30%; also: % is scaled to controls: 0 for no effect and ±100 for the full control effect
#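 AlphaScreen luminescence read after one hour at 37 °C in darkness. Pin-transferred compounds met GST-Six1 and His-Eya2 protein (5X stock 250 nM/500 nM) plus glutathione donor and Ni-chelate acceptor beads (5X, 50 ug/mL).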
# * hit, by the source's call; ? = inconclusive; nt = not tested or not shown; & = joins results of further samples; [ ] = remark or other dose.
SMILES,TRPML1 inh,TRPML1 agonist,D2 ag,CtBP-E1A inh,PINK1 expr mod,Six1-Eya2 blk
CC(C)(C)OC(=O)N/N=C/c1cccc([N+](=O)[O-])c1,-2,0.5,-4.7,0,-1.5%,-9
CCOC(=O)C(=N/O)/C(C)=N/NC(=O)C(=O)Nc1cc(Cl)ccc1Cl,-21,1.0,-2.1,-2,1.2%,-8
O=C(NCc1ccc2c(c1)OCO2)c1cccc(C(=O)NCc2ccc3c(c2)OCO3)c1,-1,0.0,-3.1,4,-1.7%,1
O=C(O)CNS(=O)(=O)c1ccc(C2CCCCC2)cc1,41,0.0,-5.6,1,2.5%,-6
O=C(Cn1c(=O)oc2ccccc21)NCc1ccccc1Cl,-21,1.5,nt,nt,-0.7%,nt
O=c1nc(-c2ccccc2)c2cc(Cl)ccc2[nH]1,-1,0.4,0.8,-2,0.7%[38.3 µM],?
CN1c2ccc(Cl)cc2-c2nc(SCC(=O)NCc3ccccc3)ncc2S1(=O)=O,11,0.2,nt,nt,2.0%,nt
COc1ccc2nc(NC(=O)CSc3nnc(C)s3)sc2c1,3,0.2,-0.8,-1,5.8%[38.3 µM],2
CCCNC(=O)Nc1ccccc1C(=O)Nc1ccc(OC)cc1,0,-0.4,-2.7,5,-0.4%,1
COc1ccc(N2CCN(C(=O)c3ccc4c(=O)n5c(nc4c3)CCCCC5)CC2)cc1,-12,-0.1,5.0,-1,0.3%,-17
COC(=O)c1cc(S(=O)(=O)Nc2cccc(-c3cnco3)c2)oc1C,nt,nt,-2.3,3,0.4%,-24
Cn1cnnc1SCc1nnc(-c2ccccc2Br)o1,6,-0.9,2.8,3,0.5%,1
COc1ccc(NC(=O)c2cc(-c3cc(Cl)ccc3C)n[nH]2)cn1,nt,-1.0,-4.2,?,1.1%,4
Cn1c(Cc2ccccc2)nnc1SCC(=O)N1CCN(c2ccccc2)CC1,-3,-1.0,-5.2,2,2.0%,-1
Cc1ccc(C(=O)N(Cc2ccc(N(C)C)cc2)CC2CCCO2)cc1 (stereo not given),-4,-0.3,nt,nt,-0.6%,nt
CC(C)c1ccc(S(=O)(=O)Nc2cc3c(cc2NCc2ccccc2)n(C)c(=O)n3C)cc1,22,-1.2,nt,nt,2.5%,nt
Cc1nc(-c2ccc(S(=O)(=O)Nc3cc(F)ccc3F)cc2)co1,1,-0.5,-1.7,-5,0.7%,-7
Cn1c(-c2ccccc2)cc(=NNS(C)(=O)=O)c2cc(S(=O)(=O)O)ccc21,14,-0.1,9.3,4,-0.9%,7
CC1=C(C(=O)Nc2ccccc2)C(c2cccc(Cl)c2)n2nc(SCC(=O)c3ccc(C)cc3)nc2N1 (stereo not given),-7,0.4,nt,nt,4.3%,nt
O=C(Nc1ccc(-c2nc3ccccc3[nH]2)cc1)c1ccccc1NS(=O)(=O)c1ccc(F)cc1,-5,3.2,9.1,13,20%,12
COc1ccc(OC)c(C(=O)c2ccc(C(=O)c3cc(OC)ccc3OC)cc2)c1,64,3.3,-0.8,6,nt,-2
CSc1ccccc1NC(=O)CCc1ccccc1,4,-0.3,-4.6,18,1.8%,5
CC(C)Oc1cccc(C(=O)NC(=S)Nc2ccccc2N2CCOCC2)c1,-7,-0.1,-1.2,11,2.4%,3
O=C(CSc1ccc(-c2cccnc2)nn1)Nc1ccc(F)c(F)c1,-1,0.5,-1.4,-3,5.7%,-5
CCN(C(=O)CSc1nc(C)cc(=O)[nH]1)C1CCCCC1,-4,1.2,1.2,10,0.9%,0
COc1ccc(-c2nc(C)c(CCNC(=O)c3ccco3)s2)cc1,-5,2.1,nt,nt,-0.7%,nt
Nc1nonc1-n1nnc(C(=O)N/N=C/c2ccc3c(c2)OCO3)c1CSc1ccccc1,-2,0.9,2.5,0,11%,-1
COC(=O)N(C)C[C@H]1OCc2cnnn2CCCC(=O)N([C@H](C)CO)C[C@H]1C,-7,-0.5,-3.7,4,2.9%,-1
CCc1cc2c(SCC(=O)Nc3ccc(Cl)cn3)ncnc2s1,2,0.0,-1.9,1,8.5%,5
CCOC(=O)c1cnc(Nc2nc3ccccc3o2)nc1C,5,0.0,-3.2,-7,0.7%[38.3 µM],-4

# An excerpt from above in order of molar mass, lowest first.
SMILES,TRPML1 inh,TRPML1 agonist,D2 ag,CtBP-E1A inh,PINK1 expr mod,Six1-Eya2 blk
CSc1ccccc1NC(=O)CCc1ccccc1,4,-0.3,-4.6,18,1.8%,5
CCN(C(=O)CSc1nc(C)cc(=O)[nH]1)C1CCCCC1,-4,1.2,1.2,10,0.9%,0
O=C(CSc1ccc(-c2cccnc2)nn1)Nc1ccc(F)c(F)c1,-1,0.5,-1.4,-3,5.7%,-5
CCc1cc2c(SCC(=O)Nc3ccc(Cl)cn3)ncnc2s1,2,0.0,-1.9,1,8.5%,5
Nc1nonc1-n1nnc(C(=O)N/N=C/c2ccc3c(c2)OCO3)c1CSc1ccccc1,-2,0.9,2.5,0,11%,-1
CC(C)c1ccc(S(=O)(=O)Nc2cc3c(cc2NCc2ccccc2)n(C)c(=O)n3C)cc1,22,-1.2,nt,nt,2.5%,nt

# Going on with the list.
SMILES,TRPML1 inh,TRPML1 agonist,D2 ag,CtBP-E1A inh,PINK1 expr mod,Six1-Eya2 blk
O=CN1CCN(C=O)C(O)C1O (stereo not given),-7,0.0,2.6,-1,-2.0%,5
C/C(=N/N1CCN(c2ccccn2)CC1)c1ccc([N+](=O)[O-])cc1,0,-0.1,1.9,-2,-2.5%,-2
Cc1noc(C(F)(F)F)c1C(=O)NNC(=O)c1ccccc1,-6,-0.8,-4.0,0,1.0%,-5
CCOc1ccccc1NC(=O)COC(=O)c1cn(CC)c2nc(C)ccc2c1=O,10,-1.4,nt,nt,0.7%,nt
O=C(/C=C/c1ccccc1[N+](=O)[O-])NCCN1C(=O)S/C(=C\c2ccc(F)cc2)C1=O,9,-1.4,1.6,-9,9.6%,7
O=C(COc1cccc2c1CCN(Cc1ccccc1)C2=O)NCc1ccco1,-12,0.1,1.5,9,1.6%,-9
COc1ccc(CCN2C(=O)C3C4CC(C5C(C(N)=O)=NOC45)C3C2=O)cc1OC (stereo not given),-9,-0.2,-1.3,-1,-0.4%,-4
Cc1ccc(N(CCC#N)C(=O)CSc2nnc3ccccn23)cc1,4,1.8,-0.5,1,0.9%,5
NC(=S)Nc1ccc(S(=O)(=O)c2ccc(NC(N)=S)cc2)cc1,-5,-1.0,-3.3,-5,-1.6%,-10
CCc1ccc(NC(=O)COC(=O)/C=C/c2ccco2)cc1,16,2.8,-1.4,-12,7.8%,-3
c1ccc(CNc2cncnc2)cc1,0,0.7,-2.1,nt,-1.0%,8
CCOC(=O)NNS(=O)(=O)c1cc(Br)ccc1Br,-15,0.8,5.2,2,-0.6%,7
CCOC(=O)c1oc2nc3c(cc2c1N)CCCC3,3,0.5,0.8,-1,0.6%,-14
CCOc1ccc(N(C(=O)Cn2nnc3ccccc32)C(C(=O)NC(C)(C)CC)c2cccn2C)cc1 (stereo not given),2,2.0,-0.3,1,7.5%,-8
Cc1nn(Cc2ccccc2)c(Cl)c1/C=C1\NC(=S)NC1=O,28,0.7,0.9,5,-0.8%,-2
CCCCNC(=O)CSc1nc2cc3c(cc2c(=O)n1Cc1ccc(C(=O)NCCc2ccc(OC)c(OC)c2)cc1)OCO3,26,2.3,nt,nt,1.2%,nt
Clc1ccc2[nH]cc(-c3nnnn3-c3ccc4ccccc4c3)c2c1,-4,-0.3,0.9,-1,4.7%,-9
C=CCSc1nnc(N2C(=O)C(O)=C(C(=O)c3ccco3)C2c2ccccc2F)s1 (stereo not given),9,23,12,0,2.0%,-15
C[C@H]1CN([C@@H](C)CO)C(=O)c2cccc(NS(=O)(=O)c3ccc(F)cc3)c2O[C@H]1CN(C)Cc1ccc(Cl)c(Cl)c1,34,4.1,-1.0,-3,11%,5
CN(C)CCn1c2c(c(SCC(=O)Nc3ccc4c(c3)OCCO4)nc1=O)CCC2,-14,0.9,-4.7,-1,-7.4%,-6
CCN1CCN(C(=S)Nc2cccc([N+](=O)[O-])c2)CC1,6,-0.3,-4.3,7,0.9%,5
CCOc1ccc(C2=CS/C(=C(\C#N)c3nnc4n3CCCCC4)N2CC)cc1,10,2.1,3.6,7,-1.5%[38.3 µM],0
O=C(COc1ncnc2ccccc12)NCCc1ccccc1,9,-0.2,-1.4,1,1.7%,1
CCc1nnc(SCC(=O)Nc2ccc3ccccc3c2)n1N,-13,-0.4,-3.1,nt,8.2%,-16
O=C(c1cc(C2CC2)nn1-c1ccccc1)N1CCN(S(=O)(=O)c2ccccc2)CC1,2,0.8,0.5,-3,-0.7%,-15
O=C(c1cc2cc(F)ccc2[nH]1)N1CCN(c2ccc(F)cc2)CC1,0,2.5,7.0,-2,4.2%,0
CC(=O)c1cccc(S(=O)(=O)Nc2cccc(S(=O)(=O)NC3=NCCC3)c2)c1,7,0.2,1.4,-7,0.8%,9
CCOc1ccc(Br)cc1S(=O)(=O)Nc1ccc(C(=O)OCC(=O)Nc2ccc(C#N)cc2)cc1,-9,1.2,-12,nt,-0.6%,-6
CCOC(=O)N1CCN(C(=O)c2ccc3c(=O)n(Cc4ccccc4)c(=S)[nH]c3c2)CC1,-9,1.0,0.8,-1,2.4%,0
Fc1ccc(-c2[nH]ncc2-c2nnnn2-c2ccccc2)c(F)c1,-8,-0.6,1.9,-5,4.2%,3
COc1ccc2c(CN3CCCCC3)cc(=O)oc2c1,nt,-0.7,-3.5,7,-0.3%,5
CCOc1ccc(CCNC(=O)c2cnc3sc(N4CCOCC4)nn3c2=O)cc1,27,0.9,nt,nt,2.8%,nt
CC(Oc1ccc(C(C)(C)C)cc1)c1ccnc2nc(/N=C/N(C)C)nn12 (stereo not given),12,-0.1,-2.8,-1,7.1%[38.3 µM],0
Nc1cc(=O)[nH]c(SCC(=O)NNC(=O)Cc2ccccc2)n1,-3,-0.7,-2.7,4,0.4%,6
COc1cc(/C=C/CO)ccc1O[C@@H]1O[C@H](CO)[C@@H](O)[C@H](O)[C@H]1O,nt,nt,-4.7,1,1.4%,2
Cc1ccccc1NC(=O)COC(=O)c1cc(S(=O)(=O)N2CCOCC2)ccc1C,6,0.1,1.5,6,0.1%,-1
Cc1noc(C)c1C(=O)OC(C)C(=O)Nc1ccc(C(N)=O)cc1 (stereo not given),-5,0.5,-3.3,nt,0.5%,5
Cc1ccc(NS(=O)(=O)c2ccc3c(c2)CCC(=O)N3)cc1C,4,0.4,6.5,0,0.5%&0.9%,-2
CCN=C1SC(C(=O)Nc2ccccc2)CC(=O)N1CC (stereo not given),10,0.7,1.8,11,nt,3
CC1(C)Cc2c(sc(/N=C/N3CCCCC3)c2C#N)C(C)(C)N1,39,-0.5,-1.0,3,-1.7%[38.3 µM],-1
Cc1ccc(OCC(=O)c2c[nH]c3ccccc23)c([N+](=O)[O-])n1,-12,-0.1,-5.1,5,1.2%,-6
COc1ccc(CCNC(=O)CSc2nc(C)cs2)cc1,11,2.5,-2.2,2,0.0%,6
